# Assay outcomes: PubChem, Broad Institute
# BJeLR viab HTS = BJeLR cell viability loss, primary screen, luminescence, CellTiterGlo ATP. BJeLR fibroblasts viability, 48 h; HRASV12, hTERT and SV40 LT/ST transformed. viability loss activity score, % (concentration not given with the values). 0.64% of 30,000 active; in the data active means viability loss activity score above about 50%; about a fifth of its hits are not listed in these tables;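 further: higher score means fewer live cells and less ATP luminescence; stock transfer was 50 or 100 nL into about 30 µL; 0% = vehicle wells and 100% = a reference killing control; one replicate is shown; the record names a cut of 85%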
# A1 inhib = inducers of caspase activity in MEF A1-2A-BIM cells, primary screen, A1 inhibitor project, cell-based, CaspaseGlo luminescence; AID 2241, 2010; caspase activation, % (no concentration beside the values); 0.51% of 21,000 active; caspase-Glo luminescence, 3 h; percent of clofoctol signal, DMSO as zero;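 active means most replicate scores above 10, or exactly half above 10 with mean activity above 10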;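 further: effector caspase 3 and 7 activity cleaving a DEVD luciferin substrate; 50 nL library stock added to about 30 µL; numbers are from one replicate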
# Numbers without * were called inactive; nt = no result given. A portion of the library; count on the stated rates, not on these rows.
SMILES,BJeLR viab HTS,A1 inhib
Cc1ccc2c(c1O)C(=O)c1ccc(O[C@@H]3O[C@H](CO[C@@H]4OC[C@@H](O)[C@H](O)[C@H]4O)[C@@H](O)[C@H](O)[C@H]3O)cc1C2=O,2.3,-0.8
C=C1CCC2[C@](C)(CCC[C@]2(C)C(=O)O)[C@H]1CC/C(C)=C/C(=O)O (some centres undefined),-0.2,-0.2
CCOC(=O)Cc1nc(OCC(=O)c2ccc(F)cc2)cs1,1.8,nt
Cc1noc(C)c1NC(=O)N(C)C[C@H]1Oc2c(NC(=O)Nc3ccccc3)cccc2C(=O)N([C@H](C)CO)C[C@@H]1C,-5.2,nt
O=C(O)C1C2C=CC(C2)C1C(=O)N1CCN(C(c2ccccc2)c2ccccc2)CC1 (centres undefined),0.5,nt
Cc1noc(C)c1NC(=O)N(C)C[C@@H]1Oc2c(NC(=O)Nc3ccc(C(F)(F)F)cc3)cccc2C(=O)N([C@H](C)CO)C[C@H]1C,1.4,nt
CCCNc1nc2ccccc2n2c(C)nnc12,-2.3,nt
C[C@@H]1CN([C@@H](C)CO)C(=O)c2cc(NC(=O)NC3CCCCC3)ccc2O[C@H]1CN(C)Cc1ccc2c(c1)OCO2,-1.0,0.7
COc1cc(N=c2scc(-c3ccc(S(=O)(=O)N4CCCC4)cc3)n2C)c(OC)cc1Cl,20,nt
O=C1NCc2c1c1c3ccccc3[nH]c1c1[nH]c3ccccc3c21,-5.0,2.5
C[C@H](CO)N1C[C@H](C)[C@@H](CN(C)S(=O)(=O)c2cccs2)Oc2ccc(NC(=O)CCC(F)(F)F)cc2C1=O,-2.5,0.5
Cc1nc(-c2cc(C#N)c(SCCNC(=O)c3ccc(Cl)cc3Cl)nc2C)cs1,-0.1,1.5
Nc1ccc(S(=O)(=O)NCCC2=CCCCC2)cc1,-7.3,nt
Cc1cc(C)nc(SCCS(=O)Cc2ccc(Cl)cc2)n1 (centres undefined),-5.4,-0.5
C[C@H]1CN([C@@H](C)CO)C(=O)c2cccc(NS(=O)(=O)c3cccs3)c2O[C@@H]1CN(C)C(=O)Nc1cccc2ccccc12,6.7,nt
O=C(O)c1ccc2c3c1cccc3c(=O)n1c3ccccc3nc21,-4.2,-5.9
O=C(CSc1nc2ccccc2c(=O)n1CC1CCCO1)Nc1cccc(C(F)(F)F)c1 (centres undefined),-0.5,0.4
COc1ccc2c(c1)CCc1c(C(=O)N3C(C)CCCC3C)noc1-2 (centres undefined),0.6,nt
CC(C)N(Cc1ccccc1)C(=O)C1=CCN(S(=O)(=O)c2ccc(F)cc2)CC1,-2.9,0.3
O=C1CCCN1CN(C(=O)c1ccccc1)c1ccccc1,-0.6,nt
Cc1noc(C)c1NC(=O)Nc1cccc2c1O[C@@H](CN(C)C)[C@H](C)CN([C@@H](C)CO)C2=O,4.6,nt
C[C@@H]1CN([C@@H](C)CO)C(=O)c2cc(NC(=O)CCCCCC(=O)Nc3ccccc3N)ccc2O[C@H]1CN(C)S(C)(=O)=O,5.5,nt
CCCCn1c(=O)c2c(ncn2CC(C)=O)n(CCCC)c1=O,2.1,-2.1
CCn1c(=O)cc(N2CCC(C)CC2)[nH]c1=O,7.6,-4.7
N#CCc1c(Cl)sc2ccc(Cl)cc12,-2.0,1.0
CN(C)CCNC(=O)c1ccc2c(c1)N(Cc1ccc(F)cc1)C(=O)c1ccccc1S2(=O)=O,4.3,nt
Cc1noc(C)c1NC(=O)N(C)C[C@@H]1Oc2ccc(NS(=O)(=O)c3ccc(Cl)cc3)cc2C(=O)N([C@@H](C)CO)C[C@H]1C,1.1,0.3
COc1c(O[C@@H]2O[C@H](C(=O)O)[C@@H](O)[C@H](O)[C@H]2O)cc(O)c2c(=O)cc(-c3ccccc3)oc12,-1.1,0.2
C[C@H]1CN([C@@H](C)CO)C(=O)c2cccc(NC(=O)Nc3ccc4c(c3)OCO4)c2O[C@H]1CN(C)Cc1ccc(C(F)(F)F)cc1,-0.7,nt
CC(C)(C)OC(=O)N1CCC(CNC(=O)c2ccc(F)cc2F)CC1,2.5,nt
C[C@H](CO)N1C[C@H](C)[C@H](CN(C)Cc2ccncc2)Oc2c(NC(=O)C3CC3)cccc2C1=O,-3.1,nt
Cc1cc(C)n2nc3nc(N4CCOCC4)nc(-c4ccc(C(C)C)cc4)c3c2n1,-7.7,nt
Cc1ccc(S(=O)(=O)N(C)C[C@@H]2Oc3c(NC(=O)c4ccncc4)cccc3C(=O)N([C@H](C)CO)C[C@H]2C)cc1,-5.9,nt
O=C1c2c(O)cc(O)cc2O[C@@H](c2ccc(O)cc2)[C@H]1[C@@H]1C(=O)c2c(O)cc(O)cc2O[C@H]1c1ccc(O)cc1,6.2,0.4
Cc1ccc(S(=O)(=O)N(C)C[C@@H]2Oc3ccc(NS(=O)(=O)c4ccc(F)cc4)cc3C(=O)N([C@H](C)CO)C[C@@H]2C)cc1,-0.2,-0.5
CC1=C(C(=O)Nc2cccc(C)n2)C(c2ccsc2)C2=C(CCCC2=O)N1 (centres undefined),3.0,0.5
C[C@@H]1CN([C@@H](C)CO)C(=O)c2cc(NC(=O)CCCN(C)C)ccc2O[C@@H]1CN(C)S(=O)(=O)c1cccs1,-0.6,0.3
CCC1=Nc2cc(C(=O)N3CCc4ccccc43)ccc2Sc2ccccc21,1.2,nt
COc1ccc(S(=O)(=O)Nc2ccc3c(c2)C(=O)N([C@H](C)CO)C[C@H](C)[C@H](CN(C)CC2CC2)O3)cc1,-0.4,-0.1
NNC(=O)Cn1c2ccccc2c2ccccc21,0.1,0.0
Cc1cccc(NS(=O)(=O)c2c(C)noc2C)c1,-0.4,nt
CNC[C@H]1Oc2c(NC(=O)Nc3ccccc3)cccc2C(=O)N([C@@H](C)CO)C[C@@H]1C,-6.1,nt
CC1(C)Nc2ccccc2C(=O)N1NS(=O)(=O)c1ccccc1,-0.9,nt
CCc1c(C(=O)OC)nnn1-c1nonc1N,-0.6,-0.6
Cc1cc(O)c(C=O)c2c1C(=O)Oc1c(C)c(O)c3c(c1O2)C(O)OC3=O (centres undefined),-1.0,-0.1
O=C(c1ccc(CNS(=O)(=O)c2ccc(Br)cc2)cc1)N1CCCC1,0.2,nt
Cc1ccc(S(=O)(=O)Nc2ccc3c(c2)C(=O)N([C@@H](C)CO)C[C@H](C)[C@H](CN(C)C(=O)Nc2ccc(C(F)(F)F)cc2)O3)cc1,-0.5,0.2
CCCc1cc(=O)oc2cc(OC(=O)/C=C/c3cccs3)ccc12,1.9,-0.4
O=C(Nc1ccc(OC(F)(F)F)cc1)OC1CN(C(c2ccccc2)c2ccccc2)C1,1.4,1.6
O=C(CCn1c(=S)[nH]c2cc3c(cc2c1=O)OCO3)NC1CCCC1,-6.3,-1.1
C[C@H]1CN([C@@H](C)CO)C(=O)c2cccc(NC(=O)C3CC3)c2O[C@H]1CN(C)C(=O)Nc1ccc2c(c1)OCO2,-0.7,nt
CCOC(=O)N1CCN(C(=O)c2cc3c(ccc4ccccc43)oc2=O)CC1,1.2,-0.2
C[C@@H]1CN([C@@H](C)CO)C(=O)c2cccc(NC(=O)c3cnccn3)c2O[C@H]1CN(C)S(C)(=O)=O,-1.6,nt
O=C(Cn1ccc2ccccc2c1=O)NC1CCCCC1,-3.6,nt
Cc1ccc2[nH]c(=O)c3cc(C(=O)NCCC(C)C)sc3c2c1,-1.7,-0.8
Cn1c(Cc2nn(C)c(=O)c3ccccc23)nnc1SCC(=O)c1ccc(Cl)cc1Cl,6.2,-0.6
COc1ccc(NC(=O)N(C)C[C@H]2Oc3ccc(NC(=O)Nc4c(C)noc4C)cc3C(=O)N([C@H](C)CO)C[C@@H]2C)cc1,-1.3,-0.3
CCOc1ccc(/C=C/C(=O)Nc2nc(-c3ccc(C)cc3)c(C)s2)cc1,10,nt
C[C@H](CO)N1C[C@H](C)[C@H](CN(C)CC2CCCCC2)Oc2c(NC(=O)NC3CCCCC3)cccc2C1=O,1.4,nt
C[C@@H]1CN([C@@H](C)CO)C(=O)c2cccc(NC(=O)C3CCCCC3)c2O[C@@H]1CN(C)Cc1ccc(Oc2ccccc2)cc1,0.0,nt

# Profiles as entered above:
# Record of `CCc1c(C(=O)OC)nnn1-c1nonc1N` : BJeLR viab HTS: -0.6; A1 inhib: -0.6
# Record of `Cc1ccc2[nH]c(=O)c3cc(C(=O)NCCC(C)C)sc3c2c1` : BJeLR viab HTS: -1.7; A1 inhib: -0.8

# More results.
SMILES,BJeLR viab HTS,A1 inhib
C[C@@H]1CN([C@H](C)CO)C(=O)c2cccc(NC(=O)C3CC3)c2O[C@@H]1CN(C)C(=O)Nc1ccc2c(c1)OCO2,-0.5,nt
Nc1nc2c(-c3ccccc3)c(C(F)(F)F)sc2s1,-3.2,0.2
C[C@H](CO)N1C[C@H](C)[C@H](CN(C)CC2CC2)Oc2ccc(NC(=O)C3CCCCC3)cc2C1=O,-1.3,0.9
C[C@@H]1CN([C@@H](C)CO)C(=O)c2cccc(NC(=O)Nc3ccccc3)c2O[C@@H]1CN(C)Cc1ccc(C(F)(F)F)cc1,-1.1,nt
C[C@H](CO)N1C[C@H](C)[C@@H](CN(C)C(=O)NC2CCCCC2)Oc2c(NC(=O)Nc3ccc4c(c3)OCO4)cccc2C1=O,4.8,nt
Cc1cc(C(=O)Nc2cccc3c2O[C@@H](CN(C)CC2CC2)[C@@H](C)CN([C@@H](C)CO)C3=O)n(C)n1,-9.1,nt
C=C1C2CC[C@@]3(C)[C@H](c4ccoc4)OC(=O)C[C@]13O[C@H]1CC(=O)C(C)(C)[C@H](C(O)C(=O)OC)[C@@]21C (some centres undefined),-6.2,0.7
CN(C)S(=O)(=O)N(C)c1ccccc1,0.6,0.9
COc1cc(O)cc2occ(-c3ccc(O)cc3)c(=O)c12,0.4,-3.1
C[C@@H]1CN([C@@H](C)CO)C(=O)c2cccc(NC(=O)Nc3ccc(F)cc3)c2O[C@@H]1CN(C)C(=O)Nc1ccc(F)cc1,4.3,nt
COc1ccc(CN(C)C[C@H]2Oc3c(NC(=O)NC(C)C)cccc3C(=O)N([C@H](C)CO)C[C@H]2C)cc1,6.3,nt
COc1ccc(CN(C)C[C@@H]2Oc3c(NC(=O)c4ccc(-c5nccs5)cc4)cccc3C(=O)N([C@@H](C)CO)C[C@H]2C)cc1,-8.6,nt
Cc1cc(C)cc(NC(=O)Nc2ccccc2C(=O)Nc2cc(C)cc(C)c2)c1,-3.1,1.6
N#CC(C(=O)Nc1cccc(C(F)(F)F)c1)=C1CCCCCC1,0.5,0.6
O=C(O)C1CC(=O)N(Cc2ccccc2)C1c1ccccc1 (centres undefined),8.1,0.3
C[C@H]1CN([C@@H](C)CO)C(=O)c2cc(NC(=O)Cn3cnnn3)ccc2O[C@@H]1CN(C)S(=O)(=O)c1ccccc1,-1.8,-0.6
CCOC(=O)CCc1c(C)c(C#N)c2nc3ccccc3n2c1Cl,88*,nt
CC(=O)OCC(=O)[C@H]1CCC2C3CCC4=CC(=O)CC[C@]4(C)C3CC[C@@]21C (some centres undefined),-4.6,-0.3
CNC(=O)Nc1ccc(C(C)(C)C)cc1Br,-3.4,-0.7
C[C@@H]1CN([C@@H](C)CO)C(=O)c2cccc(NS(=O)(=O)c3ccc(Cl)cc3)c2O[C@@H]1CN(C)C(=O)Nc1cccc2ccccc12,0.7,nt
C[C@H]1CN([C@@H](C)CO)C(=O)c2cccc(NS(C)(=O)=O)c2O[C@H]1CN(C)S(C)(=O)=O,5.0,nt
C[C@H](CO)N1C[C@H](C)[C@@H](CN(C)C)Oc2ccc(NC(=O)Cc3ccccc3)cc2C1=O,0.3,-0.7
O=C(CS(=O)(=O)c1ccc(C(F)(F)F)cc1Cl)Nc1ccc(F)cc1,2.7,-0.3
C=CCN1C(=O)NC2(CCCCC2)C1=O,-5.5,1.3
C[C@H](CO)N1C[C@H](C)[C@@H](CN(C)S(=O)(=O)c2ccc(F)cc2)Oc2c(NC(=O)c3ccc(-c4nccs4)cc3)cccc2C1=O,-0.6,nt
C[C@@H]1CC[C@@]23CCC4(C)[C@@](C=CC5[C@@]6(C)CC[C@H](O)C(C)(C)C6CC[C@]54C)(OC2=O)C3[C@H]1C (some centres undefined),1.5,0.7
CCc1ccc(C2C3=C(CCCC3=O)Nc3c2c(=O)n(C)c(=O)n3C)cc1 (centres undefined),1.4,-0.6
Cc1nnc(SC(c2ccccc2)c2ccccc2)s1,4.4,0.2
C[C@@H]1CN([C@H](C)CO)C(=O)c2cc(NS(=O)(=O)c3cccs3)ccc2O[C@H]1CN(C)C(=O)Nc1ccc2c(c1)OCO2,2.0,-0.6
Cc1nc2ccc(NC(=O)N3CC4(C)CC3CC(C)(C)C4)cc2nc1C (centres undefined),-5.5,-0.1
COc1ccc(NC(=O)N(C)C[C@H]2Oc3c(cccc3N(C)C)C(=O)N([C@@H](C)CO)C[C@@H]2C)cc1,-11,nt
C[C@@H]1CN([C@H](C)CO)C(=O)c2cc(NC(=O)Nc3ccc4c(c3)OCO4)ccc2O[C@H]1CN(C)CC1CCCCC1,5.4,0.2

# Single entries from the entries so far.
# In BJeLR viab HTS, `C[C@@H]1CN([C@H](C)CO)C(=O)c2cc(NC(=O)Nc3ccc4c(c3)OCO4)ccc2O[C@H]1CN(C)CC1CCCCC1` is listed with 5.4
# In BJeLR viab HTS, `O=C(CS(=O)(=O)c1ccc(C(F)(F)F)cc1Cl)Nc1ccc(F)cc1` is listed with 2.7
# In BJeLR viab HTS, `C=CCN1C(=O)NC2(CCCCC2)C1=O` is listed with -5.5
# In BJeLR viab HTS, `COc1ccc(NC(=O)N(C)C[C@H]2Oc3c(cccc3N(C)C)C(=O)N([C@@H](C)CO)C[C@@H]2C)cc1` is listed with -11
# In BJeLR viab HTS, `C[C@H]1CN([C@@H](C)CO)C(=O)c2cccc(NS(C)(=O)=O)c2O[C@H]1CN(C)S(C)(=O)=O` is listed with 5.0
